HIV TAR-Tat: HIV-1 TAR-Tat binding disruption. AID 1259389. z-score (no concentration beside the values). 100,000 compounds, 0.6% hits. HIV-1 TAR RNA, Tat peptide displacement FRET; stronger effect = higher value;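 note: score is relative to mean and SD of negative controls; some compounds called inactive have numbers as strong as hits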
CDC25B CDK2 inh: human CDC25B-CDK2/CyclinA binding inhibition | 94,000 compounds, 0.72% hits | HTRF CDC25B-CDK2/CyclinA binding, anti-His/anti-Flag; stronger effect = higher value | z-score (no concentration beside the values);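 note: score is relative to mean and SD of negative controls; strong numbers were not always called active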
* = called active by the depositor; . = not tested or not shown.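 Rule for the calls: active = z-score from 3 up in half or more of its runs; inactive = the rest.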

Second line of a record – HIV TAR-Tat, CDC25B CDK2 inh
> CCc1ccn2c(C)c(-c3ccc(OC)c(OC)c3)cc2c1
→ -0.16, -0.13
> Cc1ccc(-c2c(C)n([O-])c3c([n+]2=O)CCC3)cc1
→ ., -3
> CC(=O)NC(O)C(=O)c1ccco1 (stereo not drawn)
→ 0.38, -1.4
> O=C1CCSc2ccc(S(=O)(=O)NCc3ccc(Br)cc3)cc2N1
→ 0.27, .
> Fc1ccc(-c2csc3ncnc(N4CCC(N5CCCCC5)CC4)c23)cc1
→ 1.5, .
> CC1CC(C)(C)NC(=S)N1CC(=O)N1CCN(c2ncccn2)CC1 (stereo not drawn)
→ ., 0.35
> CC1(C)CC(=O)C2=C(C1)Nc1ccccc1N(C(=O)c1ccccc1)C2c1cccnc1 (stereo not drawn)
→ 0.79, -0.41
> Cc1ccc(NC(=O)/C=N/O)cc1Cl
→ ., -1.4
> CCCN1CCN(CCCNC(=O)C(CC)n2nc(C)n3c(cc4occc43)c2=O)CC1 (stereo not drawn)
→ 0.72, -2.1
> CCOC(=O)c1c[nH]c(=S)[nH]c1=O
→ ., -1.3
> CCCC(=O)N(c1ccc2oc(=O)sc2c1)S(=O)(=O)c1ccc(OC)cc1
→ 2.1, -5.7
> Cc1ccccc1OC(C)c1nc(-c2ccncc2)no1 (stereo not drawn)
→ 0.46, -0.78
> C=CCn1c(-c2cccc(Br)c2)nc2ccccc21
→ -0.31, 1.5
> COc1cccc(OCCSc2nc3ccccc3n2CC(=O)NC2CC2)c1
→ -0.24, -1.4
> O=C(Nc1ccc2c(c1)OCCO2)c1cccnc1Oc1ccccc1
→ ., -1.3
> CCCCCCC1/C(=N/O)CCC1C(=O)OC (stereo not drawn)
→ ., -1.4
> CS(=O)(=O)N1N=C(c2c(-c3ccccc3)c3cc(Cl)ccc3[nH]c2=O)CC1c1cccs1 (stereo not drawn)
→ -0.19, -0.37
> Cc1ccc2ncnc(Nc3ccc(Cl)cc3)c2c1
→ -0.02, -0.88
> CCCC1SC2=NC(C)=C(C(=O)OCC)C(c3ccccc3)N2C1=O (stereo not drawn)
→ -0.9, -2.2
> O=C(Nc1ccc(F)cc1F)c1cnn(-c2ccc(F)cc2F)c1C1CCNCC1
→ 1.1, .
> CCn1nc(C)c(CCNC(=O)NCCCOC)c1C
→ -0.77, .
> CC(=O)N1c2ccc(S(=O)(=O)N3CCCC3C(=O)Nc3ccccc3F)cc2CC1C (stereo not drawn)
→ 0.71, .
> COc1ccc(C(CC(N)=O)CC(=O)O)cc1 (stereo not drawn)
→ ., -2.1
> COc1ccc(C2=NC3(CCCCC3)NC(c3ccccc3O)C2)cc1 (stereo not drawn)
→ ., 0.24
> Cc1nnc2c(NCc3ccc4c(c3)OCO4)nc3ccccc3n12
→ 1.2, -0.52
> Cc1cc(=O)[nH]c(-c2ccccc2)n1
→ ., -1.9
> O=C1C(=O)N(Cc2ccc(CN3C(=O)C(=O)c4ccccc43)cc2)c2ccccc21
→ 1.4, -1.9
> O=C(NCc1ccccc1)c1ccc2c(=O)[nH]c3c(C(=O)NCC4CCCO4)sc(=S)n3c2c1 (stereo not drawn)
→ 0.59, .
> COC(=O)c1cccc(N2CC(O)=C(c3nc4ccccc4s3)C2=N)c1
→ 3.2, -0.64
> Cc1c(C(=O)NCc2cccs2)oc2ccc3c(c12)C(=O)CC1(CCCC1)O3
→ 2, -0.02
> O=S(=O)(c1ccc2[nH]c3c(c2c1)CCCCC3)N1CCCCC1
→ 3.4*, .
> O=S(=O)(c1ccccc1OC(F)(F)F)N1CCN(c2c(Cl)cncc2Cl)CC1
→ ., 0.83
> CCCCOc1ccc(S(=O)(=O)NCCc2cn3ccccc3n2)cc1
→ ., -1
> COc1cc(CCC(=O)Nc2c(C(=O)N3CCN(c4ccccc4F)CC3)oc3ccccc23)on1
→ -0.13, -1.6
> CCCOc1ccccc1C1Nc2ccccc2NC2=C1C(=O)CC(C)(C)C2 (stereo not drawn)
→ 0.23, -0.91
> Cc1cccc(Cn2ncc3ccccc32)c1
→ 0.59, -0.6
> COCCCn1c(SCc2nc(-c3ccccc3)no2)nc2cc3c(cc2c1=O)OCO3
→ 1.9, .
> O=C(NCCc1c[nH]c2ccccc12)C1CCCN(S(=O)(=O)N2CCOCC2)C1 (stereo not drawn)
→ 1.6, .
> Cc1ccc(S(=O)(=O)N2CCCC(c3nc(-c4ccccn4)no3)C2)cc1C (stereo not drawn)
→ 1.9, .
> O=C(NC1CC1)C1=Cc2cc(Br)ccc2OC1
→ 0.79, .
> Cn1ncc2c(Nc3ccccc3)ncnc21
→ 1.6, .
> Cc1cc2c(cc3c(=O)n(CC(=O)NCc4ccco4)ncn32)s1
→ ., 0.58
> Cc1cc(C)n(-c2nnc(C)n2/N=C/c2cc(Br)ccc2O)n1
→ ., 0.85
> Cc1csc(NS(=O)(=O)c2ccc3c(c2)NC(=O)C(C(=O)N2CCC(C)CC2)S3)n1 (stereo not drawn)
→ -0.55, .
> O=C1c2cccnc2C(=O)N1Cc1ccc(S(=O)(=O)Nc2ccc(F)cc2F)s1
→ 0.73, .
> O=C(Cn1cnc2c(oc3ccccc32)c1=O)Nc1ccc2c(c1)OCCO2
→ ., 0.7
> COc1ccc2c(c1)sc1ncc(C(=O)N3CCN(c4ccccn4)CC3)c(=O)n12
→ 1.2, 0.21
> c1ccc(-c2noc(N3CCN(c4ccccn4)CC3)n2)cc1
→ 1.7, .
> OCCSc1nnnn1-c1ccccc1
→ 2.2, -1.7
> Cn1c(=O)c(C2=NN(C(=O)c3ccco3)C(c3ccco3)C2)c(-c2ccccc2)c2cc(Cl)ccc21 (stereo not drawn)
→ -0.64, -1.1
> Oc1ccc(-c2csc3nc(-c4ccccc4)nn23)c(O)c1
→ ., -0.13
> COc1ccccc1Nc1n[nH]c(C)c1[N+](=O)[O-]
→ -0.15, -1.1
> O=C1CC(c2ccco2)Sc2ccccc2N1Cc1ccccc1F (stereo not drawn)
→ ., -2.2
> c1csc(-c2nc(N3CCCCC3)no2)c1
→ ., -0.56
> CCOc1ccc(CCNc2nn3nnnc3c3ccccc23)cc1OCC
→ -0.11, .
> O=C(O)c1ccc(Nc2ncnc3ccc(Br)cc23)cc1
→ 1.8, -3
> Cc1ccc(-c2noc(CN(C(=O)c3ccc(C)c(C)c3)C(C)C)n2)cc1
→ -1.4, -0.23
> CCCCC(Sc1ccc2nnc(-c3ccc(F)cc3)n2n1)C(=O)O (stereo not drawn)
→ ., -1.7
> COCCNC(=O)c1cc2cc3ccc(OC)cc3nc2o1
→ ., -1.6
> Cc1nn(-c2nncc(-c3ccc(F)cc3)n2)c2c1C(c1ccc(C(=O)O)cc1)CC(=O)N2 (stereo not drawn)
→ 3.7*, -2

Part of the list above in order of formula weight, highest first:
Second line of a record – HIV TAR-Tat, CDC25B CDK2 inh
> O=S(=O)(c1ccccc1OC(F)(F)F)N1CCN(c2c(Cl)cncc2Cl)CC1
→ ., 0.83
> Cc1ccc(S(=O)(=O)N2CCCC(c3nc(-c4ccccn4)no3)C2)cc1C (stereo not drawn)
→ 1.9, .
> CCCCC(Sc1ccc2nnc(-c3ccc(F)cc3)n2n1)C(=O)O (stereo not drawn)
→ ., -1.7
> c1ccc(-c2noc(N3CCN(c4ccccn4)CC3)n2)cc1
→ 1.7, .
> c1csc(-c2nc(N3CCCCC3)no2)c1
→ ., -0.56
> OCCSc1nnnn1-c1ccccc1
→ 2.2, -1.7

Further compounds.
Second line of a record – HIV TAR-Tat, CDC25B CDK2 inh
> COc1ccc(OC)c(NC(=O)COc2ccc(Br)cc2)c1
→ 1.5, -1.1
> O=C(NCc1ccc2c(c1)OCO2)C1CCCN(c2nc3ccsc3c(=O)s2)C1 (stereo not drawn)
→ -0.84, -1.2
> CCCCN1CN(Cc2ccccc2)CNC1=S
→ ., -0.94
> Cc1ccc(S(=O)(=O)Nc2ccc(-c3nc4ccccc4o3)cc2)cc1
→ ., -1.3
> CC(C)c1cc(C(=O)Nc2ccc(F)c(Cl)c2)nn1C1CCS(=O)(=O)C1 (stereo not drawn)
→ 0.35, -1.7
> CN(C)n1cccc1/C=C(\C#N)S(=O)(=O)c1ccc(Cl)cc1
→ ., -1.3
> Cc1cccc(C)c1NC(=O)Nc1cc2sccc2n1C
→ -7.4, 0.98
> CSc1nc2sc3c(c2c(=O)n1CC(C)C)CCC3
→ ., -2.4
> CCC1=Nc2cc(C(=O)N3CCOCC3)ccc2Sc2ccc(C)cc21
→ 0.35, -2
> O=C(Cn1cc(C(=O)C2CCCCC2)c2ccccc21)NCCc1c[nH]c2ccccc12
→ -0.68, -1.3
> Cc1ccnc(N2C(=O)c3ccccc3C2Nc2cccc(Cl)c2C)c1 (stereo not drawn)
→ 3.1, -1.2
> O=C(O)Cn1cnc2onc(-c3ccccc3F)c2c1=O
→ -0.27, -1.3
> Cc1nn(C(C)C(=O)N2CCC(C(N)=O)CC2)c(=O)c2c1sc1ccccc12 (stereo not drawn)
→ ., 0.88
> CCCOC(=O)C1=C(C)NC2=C(C(=O)CC(C)(C)C2)C1c1cccc(F)c1 (stereo not drawn)
→ 2.6, 0.15
> O=S(=O)(c1ccccc1)c1nc(-c2ccc(Cl)cc2)oc1N1CCOCC1
→ -0.06, -3
> CN(C)C(=O)/N=N/C(=O)N(C)C
→ ., -1.4
> CC(C)(C)OC(=O)Nc1ccc(-c2cc(C(=O)NCCCCCCC(=O)NO)no2)cc1
→ 0.72, .
> O=C1Nc2ccccc2N(c2ccccc2)N1
→ -6.5, -1.4
> COc1ccc(C2C=C(c3ccc(Cl)cc3)Nc3ncnn32)cc1 (stereo not drawn)
→ -4.9, .
> Cc1cc2nc(-c3cc(NC(=O)c4ccc(Br)o4)ccc3O)oc2cc1C
→ ., -1.1
> CSc1cccc(N2C(=O)C=CC2=O)c1
→ ., 0.39
> Cc1cccn2c(=O)c3cc(C(=O)Nc4ccc(N(C)C)cc4)n(C)c3nc12
→ 0.24, .
> N/C(CC(=O)Nc1cc(C(F)(F)F)ccc1Cl)=N\O
→ ., -2
> C/C(=N\NC(=O)c1cc(C23CC4CC(CC(C4)C2)C3)[nH]n1)c1ccc2ccccc2c1
→ ., -2.6
> Cc1ccc(C)c(N2CC(O)=C(c3nc4ccccc4c(=O)[nH]3)C2=N)c1
→ ., -2.1
> O=C1CC(c2ccc(F)cc2)Cc2nc3nc(C(F)(F)F)nn3cc21 (stereo not drawn)
→ -7.3, -0.6
> COCc1oc2ccc(NS(=O)(=O)c3ccc(Cl)cc3)cc2c1C(=O)OC
→ 0.5, -1.1
> Cc1cccc(C)c1NS(=O)(=O)c1cc(Br)cnc1N
→ 1.3, -2.1
> CCCCC(C)n1[nH]c(=O)c2c(C)cc(=O)[nH]c21 (stereo not drawn)
→ 0.93, -0.16
> Cc1ccc(Cl)c(OCc2nnc3n2N=C(c2ccccc2)CS3)c1
→ 0.49, 1

Some of the entries so far, with bars between the fields:
compound | HIV TAR-Tat | CDC25B CDK2 inh
N/C(CC(=O)Nc1cc(C(F)(F)F)ccc1Cl)=N\O | . | -2
C/C(=N\NC(=O)c1cc(C23CC4CC(CC(C4)C2)C3)[nH]n1)c1ccc2ccccc2c1 | . | -2.6
Cc1ccc(C)c(N2CC(O)=C(c3nc4ccccc4c(=O)[nH]3)C2=N)c1 | . | -2.1
O=C1CC(c2ccc(F)cc2)Cc2nc3nc(C(F)(F)F)nn3cc21 (stereo not drawn) | -7.3 | -0.6

(further entries)
Second line of a record – HIV TAR-Tat, CDC25B CDK2 inh
> O=S(=O)(/N=C1/SCCN1S(=O)(=O)c1ccc(Cl)cc1)c1ccc(Cl)cc1
→ ., -1.2
> CC(=O)OC(OC(C)=O)c1ccc(S(N)(=O)=O)cc1
→ ., -0.85
> Fc1ccc(NC(c2ccccc2)c2nnc(-c3ccccc3)o2)c(F)c1 (stereo not drawn)
→ 1.3, -1.2
> OCc1nc2ccccc2n1Cc1ccccc1F
→ 0.38, -1.6
> CCN1CCN(c2nnc(-n3cccc3CNc3cc(OC)cc(OC)c3)s2)CC1
→ -0.24, .
> COc1ccc2c(c1)C(C)CC(C)(C)N2C(=O)CSc1nccc(C)n1 (stereo not drawn)
→ 0.83, -1.4
> Cn1nc(C(=O)N2CCN(c3ccccc3)CC2)c2c1-c1ccccc1OC2
→ 1, -1.6
> NNC(=S)NCCc1ccc(Cl)cc1
→ ., -1.1
> Cc1ccc(-c2onc(C)c2C)cc1S(=O)(=O)NC1CCCCC1
→ 0.86, .
> O=C(NCC(c1ccco1)S(=O)(=O)c1cccs1)C(=O)NC1CC1 (stereo not drawn)
→ 2, .
> CCC(C)OC(=O)COc1ccc2c(=O)c(-c3ccc(OC)c(OC)c3)c(C(F)(F)F)oc2c1 (stereo not drawn)
→ 1, -1.9
> O=C(Cc1noc2ccccc12)Nc1ccc(F)cc1
→ 1.1, 0.11
> O=C(NC1CCCC1)C1CCN(C(=O)N2CCOc3ccc(Cl)cc32)CC1
→ 0.77, .
> CCCOc1ccc(C2C(C(=O)OC3CCCCC3)=C(C)NC3=C2C(=O)CCC3)cc1OC (stereo not drawn)
→ 1.2, -2.2
> COC(=O)c1oc2ccc(Br)cc2c1-n1cccc1
→ 0.72, 0.78
> C=CCN1C(=O)C2(/C(=C(/O)c3ccccc3)C(=O)C(=O)N2CCOC)c2ccccc21 (stereo not drawn)
→ 3.4, -1
> COc1ccc(CN2COc3ccc(F)cc3C2)cc1
→ -0.1, -0.4
> Cc1onc(-c2c(Cl)cccc2Cl)c1C(=O)Oc1cc(C(F)(F)F)nn1C
→ ., -0.21
> COc1ccc2c(C)cc(=O)oc2c1
→ -0.09, .
> CCOc1ccc(-c2nc(-c3ccccc3)no2)cc1OCC
→ -0.24, -0.93
> N#C/C(=C\c1ccc(-c2cc(Cl)ccc2Cl)o1)C(=O)Nc1cccc2ncccc12
→ 0.24, -0.82
> COc1ccc(Cl)cc1N(C)C(=O)C1CCN(c2ncnc3c2nc2n3CCCCC2)CC1
→ -5.6, .
> Cc1cc(Nc2ccccc2)nc(N2CCN(C(=O)Nc3ccc(F)cc3)CC2)n1
→ -0.05, .
> COCCCC/C(=N\OCCN)c1ccc(C(F)(F)F)cc1
→ ., -1.5
> COc1ccc(Cc2nc3c4cnn(-c5ccccc5F)c4ncn3n2)cc1OC
→ 1.9, -0.85
> CCCS(=O)(=O)c1nc(S(=O)(=O)c2ccc(C)cc2)c(NCc2cccnc2)s1
→ 0.31, -1.5

Assay outcomes from PubChem.
